# Screening results: PubChem, National Center for Advancing Translational Sciences (NCATS)
# VDR inhibitor: inhibitors of human vitamin D receptor. VDR-SRC2-3 peptide fluorescence polarization, 2 h. Potency, µM, for inactives: max response, negative = inhibition, actives largely listed as inhibitors. hit rate 0.93% among 400,000. AID 504847; active = well fitted inhibition curve with a large enough effect; inconclusive = small, poorly fitted or top-dose-only effect, or another doubt; inactive = no such curve, though single readings can be large or run the other way; note: series mostly up to about 120 µM
# Target sequence (P11473 whole entry, looked up): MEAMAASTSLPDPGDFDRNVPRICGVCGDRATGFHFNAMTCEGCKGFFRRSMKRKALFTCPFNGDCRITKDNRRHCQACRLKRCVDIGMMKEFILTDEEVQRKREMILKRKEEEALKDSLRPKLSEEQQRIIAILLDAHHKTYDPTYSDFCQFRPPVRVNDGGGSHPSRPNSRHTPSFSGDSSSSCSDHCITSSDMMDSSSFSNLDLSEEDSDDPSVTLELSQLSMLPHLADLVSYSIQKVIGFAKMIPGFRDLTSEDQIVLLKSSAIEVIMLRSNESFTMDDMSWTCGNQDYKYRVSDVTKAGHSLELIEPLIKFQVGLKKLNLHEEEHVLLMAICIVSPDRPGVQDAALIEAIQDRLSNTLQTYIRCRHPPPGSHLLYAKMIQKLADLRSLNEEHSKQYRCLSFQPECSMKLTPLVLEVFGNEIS
#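 Compounds are added to VDR with labelled SRC2-3 coactivator peptide and held 2 h at room temperature. Inhibition of the VDR–peptide interaction is then read as a change in fluorescence polarization.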
# Active calls of the source: *; ? = inconclusive. % is set by controls: 0 for no effect and ±100 for the full control effect; potency is the fitted concentration of half-maximal effect.
Structure | VDR inhibitor
CCCCn1cc(S(=O)(=O)c2ccc(OC)cc2)c(=O)c2cc(F)c(N3CCCC3)cc21 | 8.2%
CCOC(=O)c1nc(NCc2ccccc2C)c2ccccc2n1 | -5.5%
CN[C@@H](CCCN=C(N)N)C(=O)N[C@@H](CCCCN)C(=O)N1CCC[C@H]1C(=O)N[C@@H](Cc1c[nH]c2ccccc12)C(=O)N[C@H](C(=O)N[C@H](CC(C)C)C(=O)O)C(C)(C)C | 7.1%
Cc1cccnc1NC(=O)c1cc2ccccc2oc1=O | -9.0%
COc1ccc(CC(=O)OC(C)C(=O)NCc2ccc3c(c2)OCO3)cc1OC (centres undefined) | -9.0%
O=C(CN1C(=O)NC(Cc2c[nH]c3ccccc23)C1=O)NCC(F)(F)F (centres undefined) | 3.2%
COc1ccc(-c2noc(COc3cc(C)c(Br)c(C)c3)n2)cc1OC | -2.7%
COC(=O)c1c(C)[nH]c(C(=O)NCc2ccco2)c1C | -17.0%
O=c1c(CCc2ccccc2)nc2cnc(Oc3ccccc3)nc2n1C1CC1 | -1.6%
CCOC(=O)c1ncn2c1[C@@H]1CCNC1C(=O)c1cc(OC)ccc1-2 (some centres undefined) | 3.2%
Cc1ccc(S(=O)(=O)N2CCOC2CNC(=O)C(=O)NCC(C)C)cc1 (centres undefined) | 5.9%
Cc1cccc(N2C(=O)CSC23CCCCC3)c1 | -12.4%
COc1ccc(C(=O)CSc2nnc(-c3cccnc3)n2Cc2ccco2)cc1 | 13.9%
Cc1cccc(-c2nc3c(c(=O)c4ccccc4n3C)c(=O)n2-c2ccccc2)c1 | -4.8%
O=C(COC(=O)/C=C/c1cccc([N+](=O)[O-])c1)Nc1ccc(Cl)cn1 | -7.9%
COc1ccc(OC)c(NC(=O)C(CC(=O)O)Cc2ccc(Cl)cc2)c1 (centres undefined) | 9.2%
CSc1ccccc1OCc1cc(C(=O)NCc2cnc(C)cn2)no1 | -15.2%
CCN(CC)S(=O)(=O)c1ccc(N2CCOCC2)c(NC(=O)CN2C(=O)NC(C)(c3ccccc3)C2=O)c1 (centres undefined) | -3.7%
CCOc1ccc(C(=O)OCc2nnc(-c3cccs3)o2)cc1OC | -7.7%
COc1cc(OC)cc(C(=O)N[C@H](C(=O)Nc2c(C)n(C)n(-c3ccccc3)c2=O)C(C)C)c1 | -8.3%
C=CCn1c(=NC(=O)c2cc(Cl)sc2Cl)sc2cc(S(N)(=O)=O)ccc21 | -13.6%
COc1cccc(OC)c1C(=O)O/N=C(\N)c1ccncc1 | -7.8%
CCN(CC)CCCNc1nc(-n2nc(C)cc2C)nc2sc3c(c12)CC(C)(C)OC3 | -2.1%
COc1cc(/C=C/C(=O)Nc2cc(S(=O)(=O)N3CCOCC3)ccc2N2CCCC2)cc(OC)c1OC | ?
NC(=O)C1CCN(C(=O)c2ccc3nc(N4CCCCC4)sc3c2)CC1 | 17.5%
CC(C(=O)Nc1cc(C(F)(F)F)ccc1Cl)n1nnc2sc3c(c2c1=O)CCCC3 (centres undefined) | 1.9%
COc1ccc(NC(=O)CC2C(=O)N(C)C(=S)N2Cc2ccc3c(c2)OCO3)cc1 (centres undefined) | 5.7%
NS(=O)(=O)c1ccc(-c2ccc(C=C3C(=O)c4ccccc4C3=O)o2)cc1 | -6.1%
CCOc1ccc(C2C(C(=O)Nc3ccccc3C)=C(C)Nc3nnnn32)cc1 (centres undefined) | -1.2%
O=C1C(=O)N(c2nccs2)C(c2ccccc2F)/C1=C(\O)c1ccc2c(c1)OCCO2 (centres undefined) | -3.8%

# An excerpt of these results, as labelled records.
COc1ccc(-c2noc(COc3cc(C)c(Br)c(C)c3)n2)cc1OC
- VDR inhibitor: -2.7%
NC(=O)C1CCN(C(=O)c2ccc3nc(N4CCCCC4)sc3c2)CC1
- VDR inhibitor: 17.5%
Cc1ccc(S(=O)(=O)N2CCOC2CNC(=O)C(=O)NCC(C)C)cc1 (centres undefined)
- VDR inhibitor: 5.9%
O=C(COC(=O)/C=C/c1cccc([N+](=O)[O-])c1)Nc1ccc(Cl)cn1
- VDR inhibitor: -7.9%

# Next entries follow.
Structure | VDR inhibitor
CCOC(=O)/C(C#N)=C\c1ccc(OCC(=O)Nc2ccc(C)cc2C)c(OC)c1 | -2.1%
Cc1cc(NC(=O)Nc2cccs2)no1 | -7.8%
O=C(COC(=O)c1ccc(Br)cc1)Nc1cccnc1Cl | -2.3%
CN1CCNC(=O)C1CC(=O)NCCc1ccccc1F (centres undefined) | 3.0%
O=C(NCc1ccccc1Cl)C1CCCN(C(=O)c2cnn(-c3ccc(F)cc3)c2-n2cccc2)C1 (centres undefined) | 0.0%
COc1ccc(CNC(=O)COC(=O)c2cc(-c3ccc(Cl)s3)nc3ccccc23)cc1 | -8.9%
CCN(CC)C(=O)CSc1nc2ncc(Br)cc2[nH]1 | 4.1%
CCOc1ccc(N2CC(C(=O)OC)CC2=O)cc1 (centres undefined) | -5.0%
COc1cc(NC(=O)c2cc3ccccn3n2)cc(OC)c1OC | 4.6%
COC(=O)Cc1c(C)nc2nc[nH]n2c1=O | 0.1%
CC(C)N(C(=O)c1ccc(-c2ccccc2F)cc1)C(C)C | -9.2%
CCn1c(-c2ccc(-c3ccccc3)cc2)c[nH]c1=S | 10.7%
O=C(NCc1ccc2c(c1)OCO2)c1nnc(Cc2ccc(F)cc2)o1 | -12.5%
COc1ccc(-c2nc(CS(=O)CC(=O)NCCc3ccccc3)c(C)o2)cc1OC (centres undefined) | -12.6%
CC1CN(CC(O)COC(c2ccc(Cl)cc2)c2ccc(Cl)cc2)CC(C)O1 (centres undefined) | 8.5%
O=C(Nc1ccc2c(c1)OCO2)c1cc(-c2ccc(Br)cc2)on1 | -22.4%
CCc1ccc(NC(=O)C2(c3cccs3)CCOCC2)cc1 | 20.4%
CC(C)[C@H](NC(=O)c1ccccc1Br)C(=O)OCc1nc2ccsc2c(=O)[nH]1 | 4.2%
Cc1cc(S(=O)(=O)N2CCC3(CC2)OCCN3S(=O)(=O)c2cccs2)ccc1F | -5.1%
COc1ccc(C(NC(C)=O)c2cc(Cl)c3cccnc3c2O)cc1 (centres undefined) | 19.9%
Clc1cccc(-n2cc(-c3ccccc3)c3c(N4CCCCC4)ncnc32)c1 | 6.2%
O=C(NNC(=S)Nc1ccccc1)C1CCCCC1 | -23.0%
COc1ccc(OC)c(/C=C2\SC(N3CCCC(C)C3)=NC2=O)c1 (centres undefined) | -9.9%
COC(=O)c1cc2occc2n1CC(=O)Nc1ccc(C)cc1Cl | -4.3%
Cc1cc(Nc2c(C)n(C)n(-c3ccccc3)c2=O)c2ccccc2n1 | -18.1%
COc1ccc(-c2nc3c(-c4ccc(Cl)cc4)cnn3cc2C)cc1F | -15.0%
C=CC1(C)CN(Cc2ccco2)S(=O)(=O)c2c(F)cccc2O1 (centres undefined) | -18.8%
CNC(=O)CN(c1cc([N+](=O)[O-])ccc1OC)S(C)(=O)=O | -3.2%
COc1ccc(NC(=O)Nc2cccc3cccnc23)cc1 | 13.5%
Cc1cc(NC(=O)CCC(=O)N(CC(=O)NCC2CCCO2)Cc2ccc(F)cc2)no1 (centres undefined) | -22.2%

# 4 compounds drawn at random from those above:
Structure | VDR inhibitor
Cc1cc(NC(=O)CCC(=O)N(CC(=O)NCC2CCCO2)Cc2ccc(F)cc2)no1 (centres undefined) | -22.2%
O=C(NNC(=S)Nc1ccccc1)C1CCCCC1 | -23.0%
CC1CN(CC(O)COC(c2ccc(Cl)cc2)c2ccc(Cl)cc2)CC(C)O1 (centres undefined) | 8.5%
COc1ccc(-c2nc3c(-c4ccc(Cl)cc4)cnn3cc2C)cc1F | -15.0%

# (further entries)
SMILES | VDR inhibitor
CCC(=Nc1ccccc1OC)C1=C(O)CC(c2ccccc2)CC1=O (centres undefined) | 9.9%
COc1ccc(NCCC#N)cc1 | -0.7%
C=CCn1c(=O)/c(=C/c2ccsc2)s/c1=C(\C#N)C(=O)NCCN1CCOCC1 | 5.2%
COc1ccc(C2C=C(c3ccccc3)Nc3nnnn32)cc1 (centres undefined) | -10.4%
CCN(CC)CCCCCOc1ccccc1OC | 5.2%
Cc1cc(C)n(CNc2nc(C(F)(F)F)cs2)n1 | -2.4%
CCN(C[C@H]1N[C@@](C)(C(=O)OC)[C@H]2C(=O)N(Cc3ccccc3)C(=O)[C@@H]12)S(=O)(=O)c1ccc(C(C)(C)C)cc1 | 3.7%
CCOC(=O)CN1C(=O)N[C@@H](c2ccc(Br)cc2)C(C(C)=O)=C1C | 1.9%
CC(C)c1ccc(C2c3c(-c4ccccc4O)n[nH]c3C(=O)N2Cc2ccncc2)cc1 (centres undefined) | 4.4%
CCCC(=O)OCC(=O)Nc1ccc([N+](=O)[O-])cc1C#N | 2.8%
CCOc1ccc(S(=O)(=O)Nc2cccc(C(=O)NCCCN3CCOCC3)c2)cc1 | 11.3%
Cc1ccc(NC(=O)Cn2c(=O)n(CCC(=O)NC3CCN(Cc4ccccc4)CC3)c(=O)c3ccccc32)cc1 | -7.5%
N#Cc1ccccc1-c1ccc2ncnc(NC3CC3)c2c1 | ?
CC(N)=Nc1ccc([N+](=O)[O-])cc1 | -8.2%
O=C(CSc1nccc(=O)[nH]1)Nc1ccc(F)c([N+](=O)[O-])c1 | -7.3%
CCOc1ccc(CNC(=O)C2CCN(C(=O)N3CC(CC)Oc4ccc(C)cc43)CC2)cc1OC (centres undefined) | 17.1%
COc1ccc(C(=O)C2CCCN(Cc3ccc(C#CCCO)cc3)C2)cc1F (centres undefined) | 4.9%
C/C(=N\NC(=O)C1(C)CC1(Br)Br)c1ccc([N+](=O)[O-])cc1 (centres undefined) | 4.6%
CCOC(=O)c1c(C)[nH]c(C)c1S(=O)(=O)NCC1CCN(Cc2cccc(F)c2)CC1 | -5.9%
O=C(Cc1ccccc1)NCc1cccnc1 | 6.7%
Cc1ccccc1NC(=O)C1c2cccc[n+]2CC(=O)N1Cc1ccc2c(c1)OCO2 (centres undefined) | 1.5%
COc1cccc(N2CCN(C(C)C(=O)NC34CC5CC(CC(C5)C3)C4)CC2)c1 (centres undefined) | -9.9%
COc1ccc(CNC(=O)c2cnn3c(C)c(Cc4c(F)cccc4Cl)c(C)nc23)cc1 | -1.7%
CCCCNC(=O)C1c2ccccc2C(=O)N(c2ccc(OC)cc2)C1c1ccc(OC)cc1 (centres undefined) | -9.2%
C=CCNC(=O)C(=O)c1cccn1-c1ccsc1C(=O)OC | -5.7%
COc1ccc(COc2ccc(S(=O)(=O)N3CCCC3)cc2C(N)=O)cc1F | 23.8%
CCOC(=O)c1c(C)n(C)c2ccc(OC)c(NC(=O)CN3CCSCC3)c12 | -16.2%
COc1ccc(N(C(=O)c2ccco2)C(C(=O)NC2CCCCC2)c2cccs2)cc1OC (centres undefined) | -12.4%
CCOc1ccccc1NC(C)C(=O)Nc1cc(C(F)(F)F)ccc1N1CCOCC1 (centres undefined) | -2.6%
Cc1nnc(N/N=C/c2ccccn2)[nH]c1=O | 9.2%

SMILES | VDR inhibitor
CCCCN(CCCC)C(=O)c1sc2nc(N3CCOCC3)c3c(c2c1N)CCCC3 | ?
COc1cc(/C=C/C(=O)OCC(=O)NCc2cccs2)ccc1OCC#N | -20.2%
Cc1nn(C)c(C)c1CNC(=O)c1cnn2c1NC(c1ccccc1)CC2C(F)(F)F (centres undefined) | -19.5%
O=C(Cc1ccccc1)NN1C(=O)C2C3C=CC([C@@H]2C1=O)C31CC1 (some centres undefined) | 12.7%
COc1ccc(OC)c(CCNC(=O)c2c(C)nn(-c3ccc(F)cc3)c2-n2cccc2)c1 | 7.9%
CCCc1cc(=O)oc2cc(C)c3c(-c4ccccc4)c(C)oc3c12 | -13.0%
Cc1cc(C(F)(F)F)nc(-n2cc(-c3ccccc3)nn2)n1 | 13.9%
Cc1ccc(CNC(=O)c2ccc3c(=O)[nH]c4c(C(=O)NCC5CCCO5)sc(=S)n4c3c2)cc1 (centres undefined) | -16.3%
CS(=O)(=O)N(CC(=O)N1CCCCCC1)c1ccc(Br)cc1 | 1.5%
O=C(CN1CSCC1=O)N1CCN(S(=O)(=O)c2ccc(Cl)cc2)CC1 | 4.9%
CC(/C=N/NC(=O)CSc1n[nH]c(=O)[nH]c1=O)=C\c1ccccc1 | 13.0%
CCCN1CCN(CCCNC(=O)c2ccccc2NC(=O)C2=C(C)OCCS2)CC1 | 17.0%
CCCCc1nn2c(=O)cc(COC(=O)c3cccc(OC)c3)nc2s1 | 3.3%
CCOC(=O)N1CCN(C(=O)c2cnc(Nc3ccccc3OC)c3ccccc23)CC1 | 6.3%
CCOC(=O)c1sc(N2C(=O)c3oc4ccc(F)cc4c(=O)c3C2c2ccc(O)cc2)nc1C (centres undefined) | -6.5%
CC1=NN(c2ccc(C(=O)O)cc2)C(=O)/C1=C\c1ccc(OC(=O)c2cccs2)cc1 | ?
O=C(NCCCn1ccnc1)c1ccc(N2CCCCCC2)c([N+](=O)[O-])c1 | 7.7%
COc1ccc(CC(=O)OCC(=O)NC(=O)NC2CCCCC2)cc1 | -5.1%
COc1ccc(-n2c3c(cc(C(=O)N4CCN(CCO)CC4)c2=O)C(=O)CC(C)(C)C3)cc1 | -7.0%
CC(CCC(=O)NN)C1CCC2C3CCC4CC(O)CCC4(C)C3CCC12C (centres undefined) | -13.9%
COc1ccc(C(c2c(NC(=O)c3ccco3)sc(C)c2C)N2CCOCC2)cc1OC (centres undefined) | 21.3%
OC(Cn1cnnc1)c1ccccc1 (centres undefined) | 10.2%
COc1ccc(OC)c(C(=O)COC(=O)CNC(=O)C2CCCCC2)c1 | 2.5%
CC(C)(C)S(=O)(=O)c1cnc2c(-c3ccc(F)cc3)cnn2c1N | 2.4%
O=C(NCc1c(O)ccc2ccccc12)c1ccccc1 | 13.3%
Cc1c(NC(=O)Nc2ccc(F)cc2)c(=O)n(-c2ccccc2)n1C | 5.9%
Cc1cccc(NN=C2c3ccccc3-c3ccccc32)c1 | -7.9%
CC(=O)c1c(C)oc2ccc(NS(=O)(=O)c3cccs3)cc12 | 4.9%
Cc1c(NC(=O)c2ccccc2NC(=O)COc2ccccc2)cccc1C(=O)O | -15.0%

# An excerpt; count on the stated rates, not on these rows.
